Sfp inh = blocks B. subtilis Sfp PPTase activity | Q9F4F7 | Biochemical Sfp PPTase activity, qHTS | Potency, µM, for the others: max response, negative = inhibition, hits mostly inhibitors | 310,000 tested, 3.5% active | AID 1490; active means well fitted inhibition curve with a large enough effect; inconclusive means small, poorly fitted or top-dose-only effect, or another doubt; inactive means no such curve, though single readings can be large or run the other way;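 further: the enzyme is Sfp with the accession as filed and its product quenches rhodamine fluorescence; potency means the concentration at half of the fitted maximal effect; 0% = enzyme reaction without inhibitor and -100% = no enzyme wells; top concentration of the series not given in the record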
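Buffer: 50 mM Hepes-Na pH 7.6, 10 mM MgCl2, 0.01% Nonidet P-40, 0.01% BSA. Enzyme 15 nM, pre-exposed to compound 15 min; substrates then added and fluorescence change tracked over 30 min.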
Menin MLL FP FL = displaces fluorescein MLL peptide from human menin; Fluorescence polarization, fluorescein-MLL peptide displacement from menin; 290,000 tested, under 10 active; FP activity change, % at 61.4 µM; AID 1766; inconclusive = falling polarisation curve, or a change in total fluorescence; inactive = total fluorescence flat and polarisation flat or rising; no compound was filed as active; the % refers to the polarisation; negative = inhibition;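 further: % of control where 0% means no effect; inhibitors lower the polarisation; unlabelled MLL peptide was the positive control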
CtBP-E1A blk = inhibitors of CtBP/E1A interaction | AlphaScreen GST-E1A/His-CtBP binding, 1536-well; hits give low values; control for the full effect not named in the record | activity change, % (test concentration not listed) | 340,000 tested, 0.49% active | AID 651724; in the data active means activity change below about -65%; inconclusive means about -30% to -65%; inactive means above about -30%; further: on the % scale 0 is the no-effect control and ±100 the full control effect; compound concentration not given in the record
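In 5 uL wells, 23 nL compound meets equimolar GST-E1A and His-CtBP (5X stock 125 nM each) for 2 h, 37 °C. Beads (5X, 50 ug/mL) then 1 h, 37 °C, dark.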
ClpP mod = qHTS Assay for Activators of ClpP; ATP-dependent Clp protease proteolytic subunit (Bacillus subtilis (strain 168)), P80244; purified B. subtilis ClpP, FRET peptide cleavage, 20 min; Potency, µM (highest dose often 57.5 µM), without a hit: at the highest dose activity change, negative = active; 340,000 tested, 1.9% active; AID 651965, 2013; active = well fitted falling curve with a large enough effect; inconclusive = small, poorly fitted or top-dose-only effect; inactive = no such curve, though single readings can be large or run the other way; further: potency means the concentration at half of the fitted maximal effect; the source files actives as falling curves though it sought activators and does not explain the sign; nearly all actives have a fitted effect of over 65% in size; many hits overshoot -100%
Target sequence (P80244 whole entry, looked up): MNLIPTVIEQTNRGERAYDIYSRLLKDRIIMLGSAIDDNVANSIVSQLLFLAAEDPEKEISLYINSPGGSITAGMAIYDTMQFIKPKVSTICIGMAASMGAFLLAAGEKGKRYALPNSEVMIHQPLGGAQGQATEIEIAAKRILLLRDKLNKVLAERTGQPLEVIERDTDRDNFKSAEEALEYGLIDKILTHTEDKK
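Purified B. subtilis ClpP, 10 microg/mL final in Tris/HCl pH8 with KCl, BSA, glycerol and Tween-20, cleaved an Abz/nitrotyrosine-quenched decapeptide. Fluorescence (ex 320, em 430) was read at 0 and 20 min at room temperature. Delta was normalized to 5.8 microM ADEP and DMSO/no-enzyme controls.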
gsp antagonist = antagonists of gsp mutant (McCune-Albright syndrome); gsp-mutant cells, cAMP HTRF, 30 min; control for the full effect not named in the record; Potency, µM (doses to about 76.9 µM), without a hit: at the top dose activity change, negative = inhibition, usual class: inhibitors; 340,000 tested, 0.4% active; active = falling curve of any shape with a large fitted effect; inconclusive = falling curve, mostly with a smaller effect; inactive = flat or rising curve; cell line not stated here;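 further: intracellular cAMP measured with PDE inhibitor Ro 20-1724 present during compound exposure; potency means the concentration at half of the fitted maximal effect; on the % scale 0 is the no-effect control and ±100 the full control effect; nearly all actives have a fitted effect of over 65% in size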
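HTRF cAMP read-out (cAMP-d2 plus anti-cAMP antibody-K in lysis buffer, 30 min RT). Before lysis, cells are exposed to compounds with […] for 30 min at 37C in DPBS containing Ca/Mg, BSA and Tween 20.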
TRPV1 potentiator = human TRPV1 potentiation | 320,000 tested, 0.02% active | potentiation, % at 8.33 µM | AID 540277 | Q8NER1 | TRPV1-expressing cells, Fluo-8 calcium influx, capsaicin EC20 potentiation; host cell line not named in the record; control for the full effect not named in the record; active means potentiation above 80%; inconclusive means 30% to 80%; inactive means below 30%; further: 0% is about no effect
Target sequence (Q8NER1 whole entry, looked up): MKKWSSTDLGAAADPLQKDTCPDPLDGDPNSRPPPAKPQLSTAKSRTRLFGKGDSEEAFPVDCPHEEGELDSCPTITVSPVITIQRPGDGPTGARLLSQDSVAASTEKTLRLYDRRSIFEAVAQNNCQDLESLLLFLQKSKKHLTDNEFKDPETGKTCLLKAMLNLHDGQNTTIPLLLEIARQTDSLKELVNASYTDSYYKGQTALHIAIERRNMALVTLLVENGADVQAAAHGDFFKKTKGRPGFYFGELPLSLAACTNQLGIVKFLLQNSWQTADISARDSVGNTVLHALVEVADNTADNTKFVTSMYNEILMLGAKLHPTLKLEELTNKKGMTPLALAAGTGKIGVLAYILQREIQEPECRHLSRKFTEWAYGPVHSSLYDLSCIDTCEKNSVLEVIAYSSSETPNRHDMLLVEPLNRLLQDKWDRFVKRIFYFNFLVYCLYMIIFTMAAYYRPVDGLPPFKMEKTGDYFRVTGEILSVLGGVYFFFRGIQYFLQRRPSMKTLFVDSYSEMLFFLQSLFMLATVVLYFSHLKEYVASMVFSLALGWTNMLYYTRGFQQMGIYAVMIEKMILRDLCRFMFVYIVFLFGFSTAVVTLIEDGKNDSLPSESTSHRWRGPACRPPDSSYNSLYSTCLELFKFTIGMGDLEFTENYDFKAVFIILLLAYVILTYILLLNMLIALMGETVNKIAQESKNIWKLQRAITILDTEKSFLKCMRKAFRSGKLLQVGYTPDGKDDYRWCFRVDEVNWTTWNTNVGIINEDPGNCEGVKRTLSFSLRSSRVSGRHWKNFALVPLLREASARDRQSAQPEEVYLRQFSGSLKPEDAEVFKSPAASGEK
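Cells expressing TRPV1 were dye-loaded with Fluo-8 and read kinetically: 10 s baseline, 3 min after compound (agonist portion), then 2 min after EC20 capsaicin (allosteric enhancer portion). Calcium-bound dye fluorescence at 480/520 nm.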
gsp agonist = activates gsp, the McCune-Albright syndrome mutation; Potency, µM (series often up to 76.9 µM), without a hit: at the top dose activation (cAMP increase), actives largely listed as activators; gsp mutant cells, cAMP HTRF, 30 min; control for the full effect not named in the record; 340,000 tested, 0.13% active; active = well fitted activation curve with a large enough effect; inconclusive = small, poorly fitted or top-dose-only effect, or another doubt; inactive = no such curve, though single readings can be large or run the other way; cell line not stated here;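 further: phosphodiesterase inhibitor Ro 20-1724 added with compounds to block cAMP breakdown; potency means the concentration at half of the fitted maximal effect; nearly all actives have a fitted effect of over 60% in size; about a fifth of the inactives were tested at one dose only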
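Cells stably selected in G418 were plated at 2000/well, grown 16-24 hr, then given compounds in DMSO with the PDE inhibitor […] (300 uM solution added) for 30 min at 37C; cAMP was read by HTRF.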
Active calls of the source: *; ? = inconclusive; . = no result given; [ ] = remark or other dose.

Key to letters – A = Sfp inh; B = Menin MLL FP FL; C = CtBP-E1A blk; D = ClpP mod; E = gsp antagonist; F = TRPV1 potentiator; G = gsp agonist
COC(=O)C1SCCN1S(=O)(=O)c1ccc(Cl)cc1 (stereo not given)
  A: . | B: . | C: -1 | D: -2.8% | E: -17% | F: . | G: 9%[15.4 µM]
CCn1c(CSc2nnc3ccccn23)nc2cc(C(=O)O)ccc21
  A: 8% | B: ? | C: 3 | D: -1.8% | E: 3% | F: -2 | G: -23%
COc1ccc(/C=C/CN2CCCC(CCC(=O)NCc3ccc(F)c(F)c3)C2)cc1 (stereo not given)
  A: -15% | B: 4.8 | C: -4 | D: . | E: 6% | F: -8 | G: 3%[15.4 µM]
COC(=O)Nc1ccc(S(=O)(=O)N2CCCC(C(=O)Nc3cccnc3)C2)cc1 (stereo not given)
  A: 12% | B: 4.7 | C: 0 | D: -1.0% | E: 9% | F: -2 | G: 14%
O=c1ccc(-c2ccccc2)no1
  A: 9% | B: 5.2 | C: . | D: -0.1% | E: 3% | F: ? | G: ?
O=C(C1CC(=O)N(c2ccc(F)cc2)C1)N1CCC(c2nc3ccccc3[nH]2)CC1 (stereo not given)
  A: . | B: . | C: -7 | D: -8.6% | E: 2% | F: -5 | G: 8%
CCOC(=O)c1c(CN(C)C)n(C)c2c(O)c(N=NC(N)=O)c3ccc(Br)cc3c12
  A: 7% | B: -1.8 | C: -1 | D: . | E: 5% | F: -6 | G: 20%
CC1(C)C2CCC1(C)C(OC(=O)CNc1ccccc1)C2 (stereo not given)
  A: -4% | B: 4.8 | C: 12 | D: 0.0% | E: 9% | F: 11 | G: -4%
Cc1ccccc1NC(=O)CN1CCN(Cc2ccccc2)CC1
  A: 19% | B: 2.4 | C: 7 | D: -2.1% | E: -13% | F: 12 | G: 14%[15.4 µM]
O=C(NCc1ccccc1)c1ccc(Br)cc1
  A: 14% | B: 0.6 | C: -10 | D: . | E: 0% | F: -13 | G: -1%[15.4 µM]

Single records (already shown):
O=C(NCc1ccccc1)c1ccc(Br)cc1 across the screens: Sfp inh: 14%; Menin MLL FP FL: 0.6; CtBP-E1A blk: -10; ClpP mod: .; gsp antagonist: 0%; TRPV1 potentiator: -13; gsp agonist: -1%[15.4 µM]
COc1ccc(/C=C/CN2CCCC(CCC(=O)NCc3ccc(F)c(F)c3)C2)cc1 (stereo not given) across the screens: Sfp inh: -15%; Menin MLL FP FL: 4.8; CtBP-E1A blk: -4; ClpP mod: .; gsp antagonist: 6%; TRPV1 potentiator: -8; gsp agonist: 3%[15.4 µM]

Some entries already given with just ClpP mod, Menin MLL FP FL and Sfp inh:
SMILES	ClpP mod	Menin MLL FP FL	Sfp inh
CCn1c(CSc2nnc3ccccn23)nc2cc(C(=O)O)ccc21	-1.8%	?	8%
CCOC(=O)c1c(CN(C)C)n(C)c2c(O)c(N=NC(N)=O)c3ccc(Br)cc3c12	.	-1.8	7%
COC(=O)Nc1ccc(S(=O)(=O)N2CCCC(C(=O)Nc3cccnc3)C2)cc1 (stereo not given)	-1.0%	4.7	12%
COC(=O)C1SCCN1S(=O)(=O)c1ccc(Cl)cc1 (stereo not given)	-2.8%	.	.
CC1(C)C2CCC1(C)C(OC(=O)CNc1ccccc1)C2 (stereo not given)	0.0%	4.8	-4%

Continued:
Key to letters – A = Sfp inh; B = Menin MLL FP FL; C = CtBP-E1A blk; D = ClpP mod; E = gsp antagonist; F = TRPV1 potentiator; G = gsp agonist
Cc1ccc(Nc2ccc(C(=O)NC3CCCCC3)cn2)cc1
  A: 3% | B: 2.5 | C: 5 | D: -11% | E: 5% | F: 0 | G: ?
CCOc1ccc(S(=O)(=O)c2c[nH]c3ccc(C)cc3c2=O)cc1
  A: -3% | B: 2.0 | C: -19 | D: -3.3% | E: 8% | F: 4 | G: 1%
Cc1ccc(CN2CCN(Cc3cccn3-c3nccs3)CC2CCO)cc1 (stereo not given)
  A: -3% | B: -0.5 | C: -6 | D: . | E: 2% | F: -5 | G: -21%[15.4 µM]
CCNC(=S)NNc1ccccc1
  A: 35µM* | B: 5.7 | C: 4 | D: . | E: -11% | F: 10 | G: 3%[15.4 µM]
CC(NC(=O)c1ccco1)c1nc(-c2ccc(Cl)cc2)no1 (stereo not given)
  A: 6% | B: 4.3 | C: 0 | D: . | E: 3% | F: -9 | G: 0%[15.4 µM]
O=C(O)CCCC(=O)Nc1ccc(Oc2ncnc3cc(Cl)ccc23)nc1
  A: -11% | B: -2.7 | C: 6 | D: -3.9% | E: 11% | F: 19 | G: -45%[inhibitor]
CCOC(=O)Nc1cc(C(=O)OCC)c(C)nc1C
  A: 16% | B: 2.3 | C: 4 | D: -0.9% | E: 7% | F: 23 | G: -5%
CCOc1ccc(NC(=O)CN(C)C(=O)CC2CCCC2)cc1OCC
  A: . | B: . | C: -8 | D: -1.3% | E: -2% | F: 7 | G: 24%
COC(=O)c1cn(CC(=O)NCc2ccco2)c2ccccc12
  A: 6% | B: 3.9 | C: 5 | D: -1.2% | E: -1% | F: -31 | G: ?
Cn1c(=O)c(C(=O)Nc2ncccc2O)c(O)c2ccccc21
  A: -3% | B: -4.5 | C: ? | D: -1.2% | E: 6% | F: -4 | G: -41%[inhibitor]

(listing goes on)
Key to letters – A = Sfp inh; B = Menin MLL FP FL; C = CtBP-E1A blk; D = ClpP mod; E = gsp antagonist; F = TRPV1 potentiator; G = gsp agonist
Cc1nc(N2CCOCC2)[nH]c(=O)c1CCC(C)C
  A: -4% | B: -1.5 | C: 3 | D: -1.9% | E: 9% | F: 0 | G: -42%[inhibitor]
CCOc1cc(N2CCOCC2)c(OCC)cc1NC(=O)COC(=O)c1ccccc1OC(F)F
  A: . | B: . | C: -7 | D: 0.5% | E: -1% | F: 15 | G: 1%[15.4 µM]
NS(=O)(=O)c1ccc(NC(=S)N2CCC(O)CC2)cc1
  A: 45µM* | B: -5.5 | C: -16 | D: . | E: . | F: 3 | G: 7%[15.4 µM]
CCC(=O)Nc1nc2ccccc2n1CCN(CC)CC
  A: -2% | B: -2.1 | C: 3 | D: -0.4% | E: 1% | F: -3 | G: 13%
Cc1ccc(S(=O)(=O)N2CCOCC2)cc1NC(=O)COC(=O)/C=C/c1ccco1
  A: . | B: . | C: . | D: 0.8% | E: -8% | F: . | G: -29%
Oc1ccc(Cl)cc1-c1cc(-c2ccccc2)n[nH]1
  A: 25% | B: 5.0 | C: 5 | D: -5.3% | E: -12% | F: -26 | G: -10%
CC(=O)Oc1ccc2c(=O)oc(-c3ccc([N+](=O)[O-])cc3)nc2c1
  A: 26% | B: 3.9 | C: 4 | D: . | E: 1% | F: 8 | G: 4%
Cc1cn(C2CCCCC2)c(=O)n(-c2ccccc2)c1=O
  A: . | B: . | C: 7 | D: 2.1% | E: 19% | F: . | G: -57%[inhibitor]
COc1ccc(S(=O)(=O)N2CCOCC2)cc1NC(=O)CN1C(=O)CN(C)C1=O
  A: . | B: . | C: 0 | D: -1.3% | E: 12% | F: . | G: 5%
O=C(NCCCn1cccn1)c1cc(COc2ccc(F)cc2Cl)on1
  A: 4% | B: -1.4 | C: . | D: -1.0% | E: 0% | F: -7 | G: -18%

(more compounds)
Fields: Sfp inh, Menin MLL FP FL, CtBP-E1A blk, ClpP mod, gsp antagonist, TRPV1 potentiator, gsp agonist
- O=c1c(-c2ccccc2)cnc2n1CCS2
  23%, 0.5, 8, -3.3%, -13%, -18, ?
- Cc1cccc(C)c1OCC(=O)N/N=C/c1ccc2c(c1)OCO2
  13%, -1.5, 3, -2.7%, 5%, 2, -2%
- O=S(=O)(NC1CCCCC1)c1ccc(Br)s1
  -1%, 7.9, 1, ., -5%, -9, 8%
- C=CCn1c(COc2ccccc2)nnc1SCC(=O)Nc1ccc2c(c1)OCCO2
  1%, 0.2, -5, -3.2%, -8%, 14, 14%
- O=c1[nH][nH]c(=O)c2nc(Nc3ccccc3)ncc12
  ., ., -21, ., 7%, ., -1%
- COC(=O)c1c(-c2ccncc2)csc1NC(=O)c1ccoc1C
  12%, 1.1, 0, -11%, 9%, 10, -1%
- Cc1[nH]n2cnnc2c(=O)c1Br
  -2%, 1.0, 4, 0.5%, 12%, -18, -3%
- Cc1cccc(C(=O)Nc2ccc(C(=O)N/N=C/c3ccc(C)o3)cc2)c1
  -12%, -2.7, -17, ., -13%, 3, -16%[15.4 µM]
- C=CCN1C(c2ccc(Br)cc2)=CS/C1=C(/C#N)c1nnc(N2CCOCC2)n1-c1ccccc1
  79µM*, 13, -10, ., ?, -28, -16%[15.4 µM]
- O=C(NCc1cccs1)C1CCCN1C(=O)Nc1ccc(F)cc1 (stereo not given)
  18%, 1.5, 4, ., 11%, -4, 6%[15.4 µM]
- Fc1ccccc1N=C1NN=C(c2ccccc2)CS1
  ?, 3.3, ?, 10µM*, -10%, 6, -9%[15.4 µM]
- CCOC(=O)C1CSC2(CCC(c3ccccc3)CC2)N1 (stereo not given)
  -32%, -1.0, -12, ., 5%, 6, -1%
- Cc1nn(-c2ccc([N+](=O)[O-])cc2)c2c1C(c1cccc(Br)c1)N1C(=N2)C(=O)Nc2ccccc21 (stereo not given)
  5%, 3.3, -10, 1.6%, -14%, -1, -34%[inhibitor]
- Cc1cc(C)nc(NS(=O)(=O)c2ccc(N/C=C/C(=O)c3ccc(Cl)c(Cl)c3)cc2)n1
  29%, ., 1, -11%, 8%, 0, -25%
- O=C1C=C(c2ccc3ncccc3c2)C[C@@H](c2ccc(Cl)cc2)C1
  ., ., -8, -0.4%, -2%, 1, -4%
- COc1ccc(CN(CCC(c2ccccc2)C2CCOC(C)(C)C2)C(C)=O)cc1 (stereo not given)
  -1%, 2.7, 1, -0.5%, -23%, -11, 0%[15.4 µM]
- CC(C)(C)Cc1c(-c2ccc(Br)cc2)nc2ccc(Br)cn12
  ., ., 3, -3.7%, ., ., -33%[inhibitor]
- CCOC(=O)c1cnn(-c2cc(C)nc3c(-c4ccc(Cl)cc4)c(C)nn23)c1N
  -24%, 0.7, ., ., ., 4, .
- Cc1ccccc1NS(=O)(=O)c1nnc(NC(=O)CC(C)C)s1
  5%, 1.1, 2, 0.4%, 4%, -14, -14%
- Cc1nn(CC(=O)Nc2sc3c(c2C#N)CCC(C(C)(C)C)C3)c(C)c1[N+](=O)[O-] (stereo not given)
  -16%, -1.0, 3, 1.4%, 1%, -9, 0%
